Vaccinia stage – Vaccinia orthopox stage-specific inhibition | Vaccinia-infected cells, mCherry/Venus stage reporter fluorescence; stronger effect = lower value; some inactives read as strong as hits | activity change (mCherry), % (test concentration not listed) | 89,000 tested, 0.01% active | AID 1053133;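 active = mCherry past -33% and 40 or more points under the early reporter, replicates agreeing; inconclusive = past -33% without that gap or agreement; tested in A549 cells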;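 note: scaled between vehicle wells and reference inhibitor wells; 23 nL library stock went into each well; one replicate is shown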
Vaccinia stage Venus – recorded beside Vaccinia stage, whose call it bears; activity change (Venus), %; measured here: Venus reporter, other viral stage;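 negative = less Venus signal; first of two replicates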
Active calls of the source: *; ? = inconclusive; . = not tested or not shown. Not all compounds are listed. The share of hits here may be higher or lower than overall.

cpd | Structure | Vaccinia stage | Vaccinia stage Venus
1 | O=C(c1cccc(F)c1)N1CC2(C1)[C@H](c1ccccc1)[C@@H](CO)N2C(=O)C1CCOCC1 | 10 | 10
2 | O=C(N[C@@H]1CC[C@@H](CC(=O)N2CCOCC2)O[C@@H]1CO)c1ccc2c(c1)OCO2 | 13 | 22
3 | C[C@@H]1CCCCO[C@@H](CN(C)C(=O)Nc2ccccc2)[C@@H](C)CN([C@H](C)CO)C(=O)c2cc(NC(=O)Nc3cccc4ccccc34)ccc2O1 | 23 | 21
4 | C[C@H](O)C#Cc1ccc2c(c1)O[C@H](CN(C)C(=O)C1CC1)[C@H](C)CN([C@@H](C)CO)S2(=O)=O | 8 | 8
5 | C[C@H](CO)N1C[C@H](C)[C@H](CN(C)Cc2ccccc2F)Oc2cc(C3=CCCC3)ccc2S1(=O)=O | -14 | -16
6 | Cc1ccccc1-c1ccc([C@H]2[C@@H](CO)N3CCCCN(C(=O)Nc4ccc(F)cc4)C[C@H]23)cc1 | ? | .
7 | CN1C(=O)c2cc(NC(=O)C3CCOCC3)ccc2OC[C@H]2O[C@H](CC(=O)NCCc3ccncc3)CC[C@@H]21 | 7 | -1
8 | COc1ccc(CN2[C@@H]3CN(C(=O)c4ccccc4)c4ccccc4[C@@H]3[C@@H]2CO)cc1 | -16 | -2
9 | C[C@@H]1CN([C@H](C)CO)C(=O)c2cc(NC(=O)Cn3cnnn3)ccc2O[C@H]1CN(C)S(=O)(=O)c1cccs1 | 25 | 0
10 | CC(C)NC(=O)N(C)C[C@@H]1OCCCC[C@@H](C)Oc2ccc(NC(=O)c3ccncc3)cc2C(=O)N([C@H](C)CO)C[C@@H]1C | 12 | 10
11 | CCC(=O)Nc1ccc2c(c1)C(=O)N(C)[C@@H]1CC[C@@H](CC(=O)NC3CCCC3)O[C@H]1CO2 | 6 | 5
12 | C[C@H](CO)N1C[C@H](C)[C@@H](CN(C)C(=O)C2CCCCC2)OCCCC[C@H](C)Oc2ccc(NC(=O)Nc3cccc4ccccc34)cc2C1=O | 6 | 11
13 | C[C@@H](NC(=O)C[C@H]1C[C@H]2c3cc(NS(=O)(=O)c4ccc(F)cc4)ccc3O[C@H]2[C@@H](CO)O1)c1ccccc1 | 1 | 7
14 | C[C@H]1CN([C@@H](C)CO)S(=O)(=O)c2ccc(C3=CCCC3)cc2O[C@@H]1CN(C)CC1CCOCC1 | -18 | -12
15 | C[C@@H]1CCCCO[C@@H](CN(C)S(=O)(=O)c2ccccc2)[C@@H](C)CN([C@H](C)CO)C(=O)c2cc(NS(=O)(=O)c3cn(C)cn3)ccc2O1 | 8 | 5
16 | OC[C@H]1[C@H]2c3ccccc3NC[C@H]2N1CC1CCOCC1 | 21 | 27
17 | COCCNC(=O)c1cc2c(c(-c3cccc(C4=CCCCC4)c3)n1)[C@H](CCO)N([S@@](=O)C(C)(C)C)C2 | 0 | 32
18 | Cc1noc(C)c1NC(=O)N(C)C[C@H]1Oc2c(NC(=O)NC(C)C)cccc2C(=O)N([C@@H](C)CO)C[C@H]1C | -10 | -7
19 | Cc1noc(C)c1NC(=O)Nc1ccc2c(c1)C(=O)N([C@H](C)CO)C[C@H](C)[C@@H](CN(C)C(=O)Nc1ccccc1)OCCCC[C@H](C)O2 | 16 | 7
20 | C[C@@H]1CN([C@@H](C)CO)C(=O)c2cccc(NS(=O)(=O)c3ccc(F)cc3)c2O[C@H]1CN(C)CC1CCCCC1 | 4 | 7
21 | C[C@@H]1CN([C@H](C)CO)C(=O)c2cccc(NC(=O)Nc3ccccc3)c2O[C@H]1CN(C)Cc1ccc(-c2ccccc2)cc1 | -6 | -3
22 | C[C@@H]1CCCCO[C@@H](CN(C)Cc2ccc(C(F)(F)F)cc2)[C@H](C)CN([C@H](C)CO)C(=O)c2cc(NC(=O)CCCN(C)C)ccc2O1 | ? | .
23 | O=C(C1CCOCC1)N1CC[C@@H]2[C@H](CO)Nc3ccc(-c4cccc(F)c4)cc3[C@@H]21 | -8 | -2
24 | Cc1noc(C)c1NC(=O)N(C)C[C@@H]1Oc2ccc(NC(=O)C3CCCCC3)cc2C(=O)N([C@H](C)CO)C[C@H]1C | 6 | 12
25 | C[C@H](CO)N1C[C@H](C)[C@@H](CN(C)Cc2ccccn2)Oc2ncc(C#Cc3ccccc3)cc2C1=O | 4 | 9
26 | C[C@@H]1CN([C@H](C)CO)C(=O)c2cc(NC(=O)NC3CCCCC3)ccc2O[C@H]1CN(C)Cc1ccc(C(F)(F)F)cc1 | -26 | -20
27 | CNC(=O)C[C@H]1CC[C@@H]2[C@@H](COc3ccc(NC(=O)c4ccc(OC)cc4)cc3C(=O)N2C)O1 | 7 | 8
28 | O=C(C[C@@H]1CC[C@@H](NC(=O)c2ccccc2)[C@@H](CO)O1)NCc1ccncn1 | 5 | -4
29 | CO[C@H]1CN(C)C(=O)c2ccc(NC(=O)c3ccccc3)cc2OC[C@@H](C)N(C(C)=O)C[C@@H]1C | 17 | -5
30 | C[C@@H]1CN([C@@H](C)CO)C(=O)c2cc(-c3ccccc3)cnc2O[C@H]1CN(C)Cc1ccccn1 | -2 | 3
31 | COCC(=O)N(C)C[C@H]1Oc2cc(C#CC3CC3)ccc2S(=O)(=O)N([C@@H](C)CO)C[C@@H]1C | 0 | 3
32 | C[C@@H]1CCCCO[C@@H](CN(C)Cc2ccc(Cl)c(Cl)c2)[C@@H](C)CN([C@H](C)CO)C(=O)c2cc(NC(=O)CCCCCC(=O)Nc3ccccc3N)ccc2O1 | 20 | 11
33 | C[C@@H]1CN([C@H](C)CO)C(=O)c2cc(N(C)C)ccc2O[C@@H](C)CCCCO[C@H]1CN(C)Cc1ccc(C(=O)O)cc1 | 11 | 9
34 | O=C(C[C@H]1CC[C@@H]2[C@H](COC[C@@H](O)CN2Cc2ccccc2)O1)N1CCOCC1 | 3 | 4
35 | C=CC1CN(S(=O)(=O)c2ccc(Br)cc2)C(=O)N1c1ccc(Br)cc1 (stereo not drawn) | 3 | 2
36 | CNC[C@@H]1Oc2ccc(NC(=O)NC(C)C)cc2CC(=O)N([C@@H](C)CO)C[C@H]1C | 3 | 1
37 | C[C@H]1CN([C@@H](C)CO)C(=O)Cc2cc(NC(=O)C3CC3)ccc2O[C@@H]1CN(C)Cc1ccc(C(=O)Nc2ccccc2N)cc1 | -13 | -9
38 | CCC(=O)N1C[C@H](C)[C@H](OC)CN(C)C(=O)c2cc(NC(=O)Nc3ccccc3)ccc2OC[C@H]1C | 1 | 9
39 | C[C@@H]1CN([C@@H](C)CO)S(=O)(=O)c2ccc(C3=CCCCC3)cc2O[C@@H]1CN(C)C(=O)CN(C)C | -19 | -30
40 | Cc1ccc(S(=O)(=O)N[C@H]2CC[C@@H](CCNC(=O)C3CCC3)O[C@H]2CO)cc1 | -1 | 2
41 | C[C@@H]1CN([C@@H](C)CO)C(=O)Cc2cc(NC(=O)Nc3ccccc3)ccc2O[C@@H]1CN(C)Cc1ccc(Oc2ccccc2)cc1 | ? | .
42 | COc1ccc(NC(=O)N2C[C@@H](O)COC[C@@H]3O[C@H](CC(=O)N4CCOCC4)CC[C@H]32)cc1 | 5 | -1
43 | C[C@H]1CN([C@@H](C)CO)C(=O)CCCn2nncc2CO[C@H]1CN(C)C(=O)C1CCCCC1 | 2 | 10
44 | C[C@H]1CN([C@@H](C)CO)C(=O)Cc2cc(NC(=O)Nc3ccc(F)cc3)ccc2O[C@H]1CN(C)C(=O)Nc1ccccc1 | 2 | -3
45 | C[C@@H]1CN([C@H](C)CO)S(=O)(=O)c2ccc(C#CC(C)(C)O)cc2O[C@H]1CN(C)Cc1ccc(-c2ccccc2)cc1 | ? | .
46 | C[C@H](O)C#Cc1cnc2c(c1)C(=O)N([C@H](C)CO)C[C@H](C)[C@@H](CN(C)CC1CCCC1)O2 | 11 | 10
47 | CCCC#Cc1cnc2c(c1)C(=O)N([C@H](C)CO)C[C@@H](C)[C@@H](CN(C)Cc1ccccc1)O2 | -5 | -18
48 | O=C(C1CCC1)N1CC(=O)N2[C@H](CO)[C@H](c3ccc(Br)cc3)[C@@H]2C1 | 8 | 2

The list goes on; the last five above are carried over.
cpd | Structure | Vaccinia stage | Vaccinia stage Venus
44 | C[C@H]1CN([C@@H](C)CO)C(=O)Cc2cc(NC(=O)Nc3ccc(F)cc3)ccc2O[C@H]1CN(C)C(=O)Nc1ccccc1 | 2 | -3
45 | C[C@@H]1CN([C@H](C)CO)S(=O)(=O)c2ccc(C#CC(C)(C)O)cc2O[C@H]1CN(C)Cc1ccc(-c2ccccc2)cc1 | ? | .
46 | C[C@H](O)C#Cc1cnc2c(c1)C(=O)N([C@H](C)CO)C[C@H](C)[C@@H](CN(C)CC1CCCC1)O2 | 11 | 10
47 | CCCC#Cc1cnc2c(c1)C(=O)N([C@H](C)CO)C[C@@H](C)[C@@H](CN(C)Cc1ccccc1)O2 | -5 | -18
48 | O=C(C1CCC1)N1CC(=O)N2[C@H](CO)[C@H](c3ccc(Br)cc3)[C@@H]2C1 | 8 | 2
49 | C[C@@H]1CN([C@H](C)CO)C(=O)c2ccccc2-c2ccccc2CO[C@H]1CN(C)S(=O)(=O)c1ccccc1F | 1 | 5
50 | C[C@@H]1CN([C@@H](C)CO)C(=O)c2ccccc2-c2ccccc2CO[C@@H]1CN(C)C(=O)Nc1ccnc(N2CCOCC2)c1 | 8 | -1
51 | COc1ccc(C#Cc2ccc3c(c2)[C@H]2[C@H](CCN2C(=O)C2CC2)[C@H](CO)N3)cc1 | 13 | 13
52 | COCC#Cc1ccc([C@@H]2[C@H]3CN(C(=O)Nc4ccccc4F)CC(=O)N3[C@H]2CO)cc1 | 5 | 3
53 | CCNC(=O)C[C@@H]1CC[C@H]2[C@@H](COC[C@H](O)CN2C(=O)c2cccnc2)O1 | 24 | 10
54 | O=C(C[C@H]1C=C[C@H](NS(=O)(=O)c2ccccc2)[C@H](CO)O1)N1CCc2ccccc2C1 | 6 | 11
55 | C[C@H](CO)N1C[C@H](C)[C@H](CN(C)C)OCCCC[C@H](C)Oc2ccc(NC(=O)C3CCCCC3)cc2C1=O | 5 | 5
56 | COc1cccc(S(=O)(=O)N[C@@H]2CC[C@@H](CCn3cc(-c4ccccc4)nn3)O[C@@H]2CO)c1 | 2 | 1
57 | O=C(Cc1ccncc1)NCC[C@@H]1CC[C@H](NC(=O)C2CCOCC2)[C@H](CO)O1 | 15 | 12
58 | COc1ccc(-c2ccc([C@@H]3[C@@H](C#N)N(C(=O)C4CC4)[C@H]3CO)cc2)cc1 | -2 | 3
59 | O=C(C[C@@H]1CC[C@@H](NC(=O)Nc2cc(F)ccc2F)[C@@H](CO)O1)Nc1ccccc1 | -9 | -9
60 | C[C@@H](NC(=O)C[C@H]1CC[C@H]2[C@@H](COC[C@H](O)CN2C(=O)Nc2cccc(Cl)c2)O1)c1ccccc1 | ? | .
61 | CCCC(=O)Nc1ccc2c(c1)OC[C@H](C)N(C(=O)C1CCCC1)C[C@H](C)[C@@H](OC)CN(C)C2=O | 11 | 6
62 | C[C@H](CO)N1C[C@H](C)[C@H](CN(C)Cc2ccc(Cl)c(Cl)c2)Oc2ccc(NC(=O)Cc3cn(C)c4ccccc34)cc2C1=O | ? | .
63 | COCCNC(=O)C[C@H]1C[C@H]2c3cc(NC(=O)Nc4ccc(C(F)(F)F)cc4)ccc3O[C@H]2[C@@H](CO)O1 | -10 | -2
64 | CO[C@H]1O[C@H](CO)[C@@H](OC(=O)Nc2ccc3c(c2)OCO3)[C@@H]2OC(=O)[C@@H](Cc3ccccc3)C/C=C/C[C@H](Cc3ccccc3)C(=O)O[C@@H]12 | -17 | -21
65 | C[C@@H]1CN([C@@H](C)CO)C(=O)c2cccc(NC(=O)c3ccncc3)c2O[C@H]1CN(C)C(=O)Nc1cccc2ccccc12 | 12 | 21
66 | C[C@H](CO)N1C[C@H](C)[C@H](CN(C)CC2CCCCC2)Oc2ccc(NS(=O)(=O)c3cn(C)cn3)cc2C1=O | 3 | 12
67 | O=C(C1CCOCC1)N1CC(=O)N2[C@H](CO)[C@@H](c3ccc(C#CCc4ccccc4)cc3)[C@@H]2C1 | 7 | 7
68 | C[C@H]1CN([C@@H](C)CO)C(=O)c2cc(N(C)C)ccc2O[C@@H]1CN(C)S(=O)(=O)c1cccs1 | ? | .
69 | C[C@H]1CN([C@@H](C)CO)C(=O)Cc2cc(NC(=O)C3CC3)ccc2O[C@H]1CN(C)C(=O)Nc1ccccc1 | 5 | 6
70 | O=C(C[C@@H]1CC[C@@H]2[C@H](COC[C@H](O)CN2Cc2nccs2)O1)NCc1ccc(-c2ccccc2)cc1 | -28 | -15
71 | O=C(C[C@@H]1C[C@@H]2c3cc(NC(=O)NC4CCCCC4)ccc3O[C@@H]2[C@H](CO)O1)NCc1ccccc1 | -1 | 7
72 | C[C@H](CO)N1C[C@H](C)[C@H](CN(C)C(=O)Nc2ccccc2)Oc2ccc(NS(=O)(=O)c3ccccc3)cc2C1=O | 15 | 14
73 | COc1cccc(CN2CC3(CCN(S(C)(=O)=O)CC3)c3c(n(C)c4cc(OC)ccc34)[C@H]2CO)c1 | 2 | 5
74 | COCC#Cc1cnc2c(c1)C(=O)N([C@H](C)CO)C[C@H](C)[C@@H](CN(C)Cc1ccccc1)O2 | 21 | 16
75 | C[C@@H]1CN([C@@H](C)CO)C(=O)CCCn2nncc2CO[C@@H]1CN(C)S(=O)(=O)c1cccs1 | 3 | 9
76 | COc1ccc2c3c(n(C)c2c1)[C@H](CO)N(CC1CCOCC1)CC31CCN(Cc2nccs2)CC1 | 9 | -2
77 | C[C@H]1CN([C@@H](C)CO)C(=O)Cc2cc(NC(=O)c3ccncc3)ccc2O[C@@H]1CN(C)Cc1ccc(Cl)c(Cl)c1 | -15 | -14
78 | CCN1[C@H](C(=O)NCCc2cn(C)cn2)[C@@H](CO)[C@@H]2Cn3c(ccc(-c4ccncc4)c3=O)[C@@H]21 | 2 | 16
79 | CC(=O)N1CC[C@@H]2[C@H]1c1cc(-c3cccc(F)c3)ccc1N(C)[C@H]2CO | 18 | 6
80 | CCC(=O)Nc1ccc2c(c1)C(=O)N(C)[C@H]1CC[C@H](CC(=O)N3CCCCC3)O[C@@H]1CO2 | 1 | 10

From PubChem BioAssay
